Screening results (PubChem BioAssay)
StopGo reporter = High Throughput Screening for Foot and Mouth Disease Virus Antivirals | human cells with a luciferase reporter of 2A StopGo recoding; control for the full effect not named in the record | AID 1159524, 2015 | 1.2% of 410,000 active | Potency, µM (doses to about 57.9 µM), for inactives: at the top dose signal change, negative = less light; active = well fitted falling curve with a large enough effect; inconclusive = small, poorly fitted or top-dose-only effect; inactive = no such curve, though single readings can be large or run the other way; tested in HEK293T cells; further: nearly all actives have a fitted effect of over 45% in size; luciferase light after 4 h
RE007 growth inh = qHTS Assay for Inhibitors of the HIV-1 protein Vpr | S. pombe RE007 Vpr strain, BacTiter-Glo ATP luminescence, 24 h; control for the full effect not named in the record | Potency, µM (titrated, usually from 92.2 µM), for the others: at the highest dose activity change, negative = less growth | 0.21% of 360,000 active; active = well fitted falling curve with a large enough effect; inconclusive = small, poorly fitted or top-dose-only effect; inactive = no such curve, though single readings can be large or run the other way;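 further: nearly all actives have a fitted effect of over 50% in size; the assay follows cell death caused by Vpr and the record does not say whether a fall means rescue or toxicity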
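Fission yeast strain RE007, carrying one chromosomally integrated HIV-1 vpr copy, was seeded at OD 0.01 in PMG+AL medium with 23 nL pinned compound. After 24 h at 30 °C and 99% humidity, viability was read by BacTiter-Glo luminescence.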
Starred values were filed as active, the others as inactive; ? = inconclusive; [ ] = remark or other dose. On the % scale 0 is the no-effect control and ±100 the full control effect; potency means the concentration at half of the fitted maximal effect. These rows are one share of the data; the hit share may differ from the screen's.

The first two entries (preview)
The line under a structure holds: StopGo reporter | RE007 growth inh
> CC(C)N1CCCC(C)(C(=O)Nc2nc3ccccc3n2C)C1 (stereo not drawn)
→ -1% | -19%
> COc1ccc(CNC(=O)c2[nH]c(C(F)(F)F)nc2-c2ccccc2)cc1
→ -19% | 4%

This part in full (from the top)
The line under a structure holds: StopGo reporter | RE007 growth inh
> CC(C)N1CCCC(C)(C(=O)Nc2nc3ccccc3n2C)C1 (stereo not drawn)
→ -1% | -19%
> COc1ccc(CNC(=O)c2[nH]c(C(F)(F)F)nc2-c2ccccc2)cc1
→ -19% | 4%
> CCCNC(=O)C1(C)CCN(Cc2ccc3ccccc3c2Br)C1 (stereo not drawn)
→ ? | 1%
> COc1ccc(Cl)cc1C1=NOC2(CCC2)C(=O)N1Cc1cccc(C#N)c1
→ 14% | 9%[18.4 µM]
> O=C(CN1C(=O)CSc2ccc(S(=O)(=O)N3CCOCC3)cc21)NCCc1ccccc1
→ 15% | -10%
> CC1(C(=O)NCC2CC2)Cc2c(-c3ccc4c(c3)OCO4)ccnc2O1 (stereo not drawn)
→ -2% | -2%
> O=C1C[C@@H]2c3c(cccc3CN1Cc1ccc(Cl)cc1)C[C@@H](O)[C@H]2O
→ -2% | 7%
> Cn1c(=O)[nH]c(=O)c2c1nc(N1CCN(C(=O)c3ccco3)CC1)n2CCCSc1ncccn1
→ -3% | -5%
> O=[N+]([O-])c1ccccc1N=Nc1ccc(O)cc1
→ 42%[activator] | -19%
> COc1cc(/C=C/C(=O)OCC(=O)N2CCCCCC2)cc(OC)c1OC
→ 0% | -8%
> OC(c1cc(F)cc(Cl)c1)c1ncc(-c2ccccc2Cl)[nH]1 (stereo not drawn)
→ 52%[activator] | -24%
> O=C1NC(=O)C(c2ccccc2)(c2ccccc2)N1S(=O)(=O)c1ccccc1
→ 74%[activator] | 10%
> CC(C)C[C@@H](COCc1cccc(Cl)c1)N1CCN(C(=O)c2ccc(C(F)(F)F)cc2)CCC1=O
→ -26% | 16%
> CCCCCCn1c(=O)n2n(c1=O)[C@@H]1CN(S(=O)(=O)c3ccc(C)cc3)C[C@]1(O)[C@@H](OC(=O)NC1CCCC1)C2
→ 0% | -12%
> Cc1nc(C(F)(F)F)ccc1C(=O)N1CCC1(C)C(=O)NS(=O)(=O)c1ccccc1 (stereo not drawn)
→ -7% | 7%
> O=c1c2ccccc2sn1-c1cccc(Cl)c1
→ 2% | 10µM*
> CNc1cncc(-c2ccoc2)n1
→ 3% | -4%
> O=C(NCc1cccc(Br)c1)C1CC(c2ccc(C(F)(F)F)cc2)=NO1 (stereo not drawn)
→ -22% | -2%
> COc1ccc(S(=O)(=O)N(C)C[C@@H]2OCCCC[C@H](C)Oc3ccc(NC(=O)Nc4ccc(C(F)(F)F)cc4)cc3C(=O)N([C@H](C)CO)C[C@H]2C)cc1
→ -19% | 12%
> COc1cc(C23CCCN(CCC(C(C)(C)C)C2)C32OCCO2)cc(OC)c1OC (stereo not drawn)
→ -24% | -16%
> CCOC(=O)Nc1ccc2c(c1)N(C(=O)CN(C)C)c1ccccc1S2
→ -12% | -17%
> C[C@H]1CN([C@@H](C)CO)C(=O)CCCn2cc(nn2)CO[C@@H]1CN(C)S(=O)(=O)c1cccc(F)c1
→ -8% | 6%
> C[C@@H](c1ccccc1)N1C[C@@H](COCc2ccccc2)Oc2cc(N3CCC[C@@H]3CO)ccc2S1(=O)=O
→ -1% | 23%
> NS(=O)(=O)c1ccc(CNC(=O)c2cc(S(=O)(=O)N3CCOCC3)ccc2N2CCCC2)cc1
→ -10% | -6%
> COc1ccc(-c2cnc3c(NC=O)cc(-c4ccccc4OC)cn23)cc1OC
→ ? | -4%[18.4 µM]
> COc1cccc(CNC(=O)[C@@H]2CCCN2C(=O)[C@H]2CCCCN2C(=O)c2cccc3ccccc23)c1
→ -4% | 2%
> COc1ccc(-n2c(-c3ccc(C(C)(C)C)cc3)n[nH]c2=S)c(OC)c1
→ -28% | -25%
> COc1ccc(S(=O)(=O)NCc2ccccn2)cc1C
→ 78%[activator] | 11%
> COc1ccc(OCCN2CCC(C(=O)NC(c3ccc(F)cc3)c3ccc4ccccc4n3)CC2)cc1 (stereo not drawn)
→ -9% | -9%
> CNc1ncnc2c1ncn2[C@H]1CN(CCc2ccccc2)C[C@@H](CO)O1
→ -12% | 10%

Next part
The line under a structure holds: StopGo reporter | RE007 growth inh
> COc1ccc(CCNC(=O)Nc2nc(C(N)C3CCCCC3)cs2)cc1OC (stereo not drawn)
→ -10% | -7%
> O=C(NN=Cc1ccc2c(c1)CCC2)c1ccccc1O
→ -19% | -25%
> C=C1C[C@@H]2C[C@@H]2CN(S(=O)(=O)c2ccc(C)cc2)[C@@H]1c1ccco1
→ -1% | 5%
> COCCNC(=O)C1(C)CCCN(Cc2ccc(Oc3ccccc3)cc2)C1 (stereo not drawn)
→ -22% | -15%[18.4 µM]
> Cc1cc(SCC(=O)N2c3ccccc3NC(=O)CC2C)nc2ccccc12 (stereo not drawn)
→ -22% | -3%
> CCc1nc2ccc(C(=O)NCCCn3ccnc3)cn2c1N(C)C(=O)COc1ccccc1
→ 0% | 3%[18.4 µM]
> O=C1NC(Cc2ccc(O)cc2)c2nc3cc(Cl)ccc3c(=O)n2-c2cc3ccccc3cc21 (stereo not drawn)
→ ? | 31%
> COc1ccc2c(c1)[C@]1(C[C@H](O)CO1)C(=O)N2C
→ -10% | 0%
> CC(C)c1cn(CC[C@@H]2CC[C@H](NS(=O)(=O)c3ccc(F)cc3)[C@@H](CO)O2)nn1
→ -9% | 8%
> CN(C)CCCN(C(=O)c1ccc(S(=O)(=O)N2CCCCCC2)cc1)c1nc2cc3c(cc2s1)OCO3
→ -15% | 2%
> CCOC(=O)[C@]12CCCC=C1N(Cc1ccc3c(c1)OCO3)C(=O)[C@H](CC(=O)NCC13CC4CC(CC(C4)C1)C3)C2
→ -29% | -21%
> Nc1[nH]c(C(=O)c2ccccc2)c(-c2ccccc2Br)c1C(=O)NCCc1c[nH]c2ccccc12
→ -24% | 0%
> CNc1cnc(-c2cccc(C(=O)N3CCOCC3)c2)cn1
→ 2% | 7%
> Nc1nc(N)c2cc(S(=O)(=O)c3ccc4ccccc4c3)ccc2n1
→ -17% | -18%
> O=S(=O)(NN=Cc1cccc(Cl)c1)c1ccccc1
→ 73%[activator] | 13%[18.4 µM]
> Cc1csc(SCC(=O)Nc2ccc(C)c(S(=O)(=O)N(C)C)c2)n1
→ 50%[activator] | -1%
> COc1ccc(-n2c(=O)c(CCC(=O)N3CCN(c4cccc(OC)c4)CC3)nc3ccccc32)cc1
→ ? | 16%
> CC(=O)OC1(C)CC(C)C(=O)C(C(O)CC2CC(=O)NC(=O)C2)C1 (stereo not drawn)
→ ? | ?
> CCOC(=O)C1(C)CCCCCN1C(=O)c1ccc(C(F)(F)F)nc1C (stereo not drawn)
→ -17% | 7%
> CCCCCNC(=O)C(c1ccncc1)n1c(=O)c(-c2cc3ccccc3[nH]2)nc2ccccc21 (stereo not drawn)
→ 26% | -4%
> C[C@H](CO)N1C[C@H](C)[C@@H](CN(C)Cc2ccc3c(c2)OCCO3)OCc2cnnn2CCCC1=O
→ -2% | -2%
> CN1C(=O)C(c2cn(C)c3ccccc23)(c2cn(C)c3ccccc23)c2cc(Br)ccc21
→ -9% | 0%
> COC(=O)[C@@]12C[C@@H](CC(=O)NCc3cccs3)C(=O)N(Cc3ccccc3)C1=CCC(C)(C)C2
→ 12% | -1%
> NC(Cc1ccc(F)cc1)c1csc(Nc2nncc3ccccc23)n1 (stereo not drawn)
→ 0% | -13%[18.4 µM]
> CN(CCc1ccccc1)C(=O)c1cccc(NC(=O)Cc2cccc(NC(=O)C3CCCN(C(=O)c4ccccc4)C3)c2)c1 (stereo not drawn)
→ ? | 1%
> O=C1NC[C@H](Cc2ccccc2)N(C[C@H]2CCCN2C[C@H](Cc2ccccc2)N2C[C@H](Cc3ccccc3)N(CC3CCCCCC3)C(=O)C2=O)C1=O
→ ? | 1%
> Cc1csc(SCC(=O)Nc2ccc(CC#N)cc2)n1
→ ? | -6%
> Cc1cc(C)c(OCC(=O)OCC(=O)NCc2ccco2)c(C)c1
→ -21% | -18%
> COc1ccc(C(CNC(=O)c2ccc(S(=O)(=O)Nc3ccccc3OC)cc2)N2CCCC2)cc1 (stereo not drawn)
→ -29% | -7%
> Cc1cc2c(cc1C)-n1nnnc1C(N1CCN(c3ccccn3)CC1)C(c1ccc3c(c1)OCO3)=N2 (stereo not drawn)
→ 29% | -6%

New compounds follow.
The line under a structure holds: StopGo reporter | RE007 growth inh
> CCc1ccc(OC2(C)CCN(Cc3ccc4c(c3)OCCO4)C2)cc1 (stereo not drawn)
→ -19% | ?
> CN1C[C@@H]2[C@@H]3C(=O)N(Cc4ccccc4)C(=O)[C@@H]3[C@](Cc3ccccc3)(C1=O)N2C(=O)c1ccc(Br)cc1
→ -6% | -8%
> COc1ccc(C(=O)O/N=C2\C(=O)N(C)c3ccccc32)cc1
→ -6% | ?
> COc1ccc(C(=O)N(C)CCOc2ccc(Cl)cc2)cc1S(=O)(=O)N1CCCC1
→ 20% | -3%
> Cc1ccc(CNC(=O)c2cc(-c3ccccc3)nn2CC2CC(c3cccnc3)=NO2)cc1 (stereo not drawn)
→ 10% | 1%
> Cc1[nH]ncc1Nc1ccccc1C(C)C
→ -7% | 11%
> CCCC1NC(=O)c2cccnc2-n2c1nc1cc(F)c(F)cc1c2=O (stereo not drawn)
→ -21% | -1%
> Cc1c(-c2ccccc2)n(O)c(-c2ccc(N(C)C)cc2)[n+]1[O-]
→ 40%[activator] | 16%
> COC(=O)/C=C1\OCc2cc(OCc3ccccc3)ccc21
→ 10% | 0%
> CNC(=O)c1cn2c3c(ccc(Cl)c3c1=O)OC(C)C2 (stereo not drawn)
→ 8% | -4%
> C[C@@H]1CN([C@@H](C)CO)C(=O)CCCn2nncc2CO[C@@H]1CN(C)S(=O)(=O)c1ccccc1
→ -19% | 5%
> O=C(O)C[C@H]1c2cc(F)ccc2S(=O)(=O)N1C1CCCCC1
→ -16% | 11%
> COc1cccc(CN(C)C(=O)c2ccc(NC(=O)CC3SC(N4CCCCC4)=NC3=O)cc2)c1OC (stereo not drawn)
→ -3% | 8%
> COC(=O)[C@@]12C[C@@H](CC(=O)NCC3CCCCC3)C(=O)N(Cc3cccc4ccccc34)C1=CCC(C)(C)C2
→ -12% | 5%
> O=C1CCN(C(=O)c2ccccc2)c2ccccc21
→ -4% | -13%
> C[C@@]12CC[C@@H](C3=C(CCC3)C1)N2c1ccccc1
→ -18% | ?
> CSCCC(NC(=O)c1cccc(S(=O)(=O)N2CCN(C(C)=O)CC2)c1)c1nc2ccccc2[nH]1 (stereo not drawn)
→ -1% | 10%
> CCCCN(C=O)c1c(CC)nc2c(OCCn3cccc3)cccn12
→ -16% | ?
> COC(=O)[C@H](CO)N1C(=O)[C@@H]2[C@H](C1=O)C1C=C[C@H]2C1
→ -6% | 4%
> COc1ccc(CC(N)c2csc(NC(=O)C(c3ccccc3)c3ccccc3)n2)cc1 (stereo not drawn)
→ -27% | -6%
> CCC1NC(=O)c2cccnc2-n2c1nc1cc(C)cc(C)c1c2=O (stereo not drawn)
→ -16% | 9%
> O=C1OCCN1c1c(-c2ccccc2)c(N2CCOCC2)nc2ccccc12
→ -7% | -4%
> CNc1cccc(-c2cccc(C(=O)N3CCOCC3)c2)n1
→ 12% | -23%
> COc1ccc(NS(=O)CCCc2ccccc2)cc1 (stereo not drawn)
→ 10% | -23%
> CCc1noc(C)c1C(=O)OCC(=O)c1ccc(NC(=O)CC(C)C)cc1
→ -3% | -10%
> Cc1ccccc1/C(=N\S(=O)(=O)c1ccc(Br)cc1)Nc1ccccc1
→ 20% | 0%
> O=C(C[C@@H]1C=C[C@H](NS(=O)(=O)c2ccccc2F)[C@@H](CO)O1)NCCCN1CCOCC1
→ -14% | 3%
> CC1(C(=O)Nc2ccc(Cl)c(C(F)(F)F)c2)Cc2c(-c3ccccc3)ccnc2O1 (stereo not drawn)
→ ? | -2%
> C[C@@H]1CCC[C@@]2(O[C@@H](CCO)C[C@H](O)[C@H]2O)O1
→ -10% | -4%
> O=C(C(=O)N1CCN(CCN2CCOCC2)CC1)c1ccccc1
→ -8% | 8%

Part of the list above in order of molecular weight, low to high:
The line under a structure holds: StopGo reporter | RE007 growth inh
> CCCC1NC(=O)c2cccnc2-n2c1nc1cc(F)c(F)cc1c2=O (stereo not drawn)
→ -21% | -1%
> COc1ccc(Cl)cc1C1=NOC2(CCC2)C(=O)N1Cc1cccc(C#N)c1
→ 14% | 9%[18.4 µM]
> NS(=O)(=O)c1ccc(CNC(=O)c2cc(S(=O)(=O)N3CCOCC3)ccc2N2CCCC2)cc1
→ -10% | -6%

Next section:
The line under a structure holds: StopGo reporter | RE007 growth inh
> CC(C)C[C@@H](CNCC(=O)[C@H](C)NC(=O)c1[nH]cnc1C(=O)N[C@@H](C)CN)NC(=O)c1nc[nH]c1C(=O)N[C@@H](CC(=O)O)C(=O)O
→ -23% | -12%
> COCc1cccc(-c2csc(C(C)(O)c3ccc(OC)cc3)n2)c1 (stereo not drawn)
→ 0% | 10%
> C[C@@H]1CNC(=O)c2c(C(=O)NCC(=O)OC(C)(C)C)ncn21
→ -26% | -11%
> O=S1(=O)CC(N2CCCCC2)C1CN1CCCCC1 (stereo not drawn)
→ -14% | -3%
